MenB inh – Mtb MenB enzyme inhibition. 0.43% of 100,000 active. inhibition, %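 (about 12 µg/mL by stock and volumes)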. MenB enzyme assay, absorbance read-out; some hits fall short of the stated cut. P9WNP5;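 active means mean of two replicates above 30%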;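 further: 0% = no compound and 100% = wells with inactive enzyme; the first replicate is given; strong numbers were not always called active; inactives centre near -10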
Target sequence (P9WNP5 whole entry, looked up): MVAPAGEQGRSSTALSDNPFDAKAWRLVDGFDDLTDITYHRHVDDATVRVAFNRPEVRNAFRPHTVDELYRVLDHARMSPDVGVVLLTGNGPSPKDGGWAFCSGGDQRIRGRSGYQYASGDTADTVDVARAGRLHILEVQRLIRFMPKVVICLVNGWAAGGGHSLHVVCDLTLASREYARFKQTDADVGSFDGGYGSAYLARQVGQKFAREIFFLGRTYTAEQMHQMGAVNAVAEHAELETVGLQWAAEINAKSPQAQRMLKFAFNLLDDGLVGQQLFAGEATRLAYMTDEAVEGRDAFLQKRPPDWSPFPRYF
Polio RdRp inh – poliovirus RNA polymerase inhibition | P03300 | poliovirus polymerase elongation, fluorescence polarization; active compounds read low | % elongation, % (compound at 16.7 µg/mL) | AID 588519 | 0.66% of 150,000 active; in the data active means % elongation below about 90%; further: some results filed as inactive read as strong as hits
MbtI inh – blocks the Mycobacterium tuberculosis siderophore enzyme MbtI | purified MbtI enzyme, fluorescence intensity read-out | inhibition, %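 (about 17 µg/mL by stock and volumes)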 | 0.89% of 100,000 active | AID 493033;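 active means above 50% in both replicates, above 80% if mildly self-fluorescent; inactive means the rest, strongly fluorescent compounds included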;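 further: 0% = mean of negative and 100% = mean of positive controls; one replicate is shown; some compounds called inactive have numbers as strong as hits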
Target sequence (P9WFX0 whole entry, looked up): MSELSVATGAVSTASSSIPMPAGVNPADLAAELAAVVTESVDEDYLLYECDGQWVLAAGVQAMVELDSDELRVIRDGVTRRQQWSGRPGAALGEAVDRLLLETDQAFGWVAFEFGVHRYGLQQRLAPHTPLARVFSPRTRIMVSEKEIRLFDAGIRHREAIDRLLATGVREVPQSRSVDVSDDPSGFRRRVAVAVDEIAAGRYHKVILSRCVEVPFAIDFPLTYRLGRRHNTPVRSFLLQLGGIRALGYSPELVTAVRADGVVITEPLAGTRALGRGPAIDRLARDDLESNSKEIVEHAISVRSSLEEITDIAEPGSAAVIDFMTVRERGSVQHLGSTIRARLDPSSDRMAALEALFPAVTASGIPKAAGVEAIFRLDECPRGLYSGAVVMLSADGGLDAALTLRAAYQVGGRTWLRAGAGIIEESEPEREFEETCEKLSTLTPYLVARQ
Polio RdRp inh intensity – further read-out of Polio RdRp inh, marked with its call; % elongation; measured here: total intensity read-out; formula for this scale not given here;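 total fluorescence in place of polarization; lower means less elongation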
* hit, by the source's call; . = no result given; & = joins results of further samples.

SMILES	MenB inh	Polio RdRp inh	Polio RdRp inh intensity	MbtI inh
Cc1ccc(Oc2ncccc2NS(=O)(=O)c2cn(C)c(C)n2)c2c1CCC2	15.5	97.0	97.0	4.5
CC(C)c1nc(N(C)S(C)(=O)=O)nc(-c2ccc(F)cc2)c1/C=C/[C@@H](O)C[C@@H](O)CC(=O)O	-5.7	100.0	101.0	-10.4
COc1ccc(-c2nsc(SCC(=O)N3CCCC3)n2)cc1	0.8	96.0	88.0	24.6
O=C(Cc1ccccc1)NCC(=O)N1CCCCC1	-2.8	103.0	99.0	3.8
CC(NC(N)=O)C1CC2CCC1C2 (configuration not stated)	-6.0	101.0	101.0	-8.2
ON=C1C2CC3CC(C2)CC1C3	-1.7	103.0	102.0	3.9
CCOC(=O)c1ccc(-n2c(N)c(C(=O)N3CCCC3)sc2=S)cc1	-25.4	99.0	96.0	93.5*
O=C(CSc1nncn1-c1ccccc1)Nc1c(F)c(F)c(F)c(F)c1F	.	102.0	105.0	-12.4
CCCc1cc(=O)[nH]c(SCC(=O)N2CC(=O)Nc3ccccc32)n1	-13.5	100.0	100.0	45.0
C[C@@]1(C2CCCC2)Cc2cc(OCC(=O)O)c(Cl)c(Cl)c2C1=O	-6.7	98.0&99.0	104.0&103.0	50.1
OC1(c2ccccc2)CC2CCC(C1)N2c1ncccn1 (configuration not stated)	1.7	100.0	102.0	9.9
COc1ccc(O)c(C(=O)c2cnc3nc4ccccc4n3c2)c1	-30.5	130.0	140.0	42.3
CN(C)c1nc2ccc(OCCN3CCCCC3)cc2s1	12.8	99.0	103.0	-9.4
Cc1noc(NS(=O)(=O)c2ccc(NC(=O)c3ccncc3)cc2)c1C	-7.1	104.0	106.0	-12.3
CCCN1C(=O)/C(=N\OCC(=O)N2CCC(C)CC2)c2ccccc21	-29.9	103.0	107.0	0.2
CC1(C)Cc2ccccc2C(c2sc3nc4c(cc3c2N)CCCCC4)=N1	-18.4	106.0	103.0	.
CCn1nc(C(=O)NC23CC4CC(CC(C4)C2)C3)c2ccccc2c1=O	14.0	107.0	99.0	16.2
Cc1cc(CNC(=O)Nc2ccc3c(c2)OCO3)c(C)n1-c1ccc(F)cc1	-39.4	100.0	104.0	-15.3
COc1cccc(-c2nnc(-c3ccccc3)o2)c1	-19.6	100.0	106.0	.
Cc1ccc(O)c(C(=O)CSc2nnc(-c3ccccn3)c(-c3ccccn3)n2)c1	-48.7	102.0	101.0	4.0
CNC(=O)N(c1ccccc1)c1ccccc1	11.2	101.0	104.0	-8.2
O=C1CC(N2CCN(Cc3ccccc3)CC2)C(=O)N1 (configuration not stated)	-0.1	102.0	102.0	-7.8
Cc1c(C)c(/C=N/O)c(C)c(C)c1/C=N/O	8.9	101.0	92.0	.
CN(Cc1ccccc1)C(=O)Cn1c(=O)c2cccn2c2cccnc21	-21.7	101.0	108.0	0.2
NC(=O)C1CCCCN1C(=O)CCCc1c[nH]c2ccccc12 (configuration not stated)	-1.7	102.0	102.0	3.5
CC(=S)/C=C1\Sc2ccccc2N1C	.	101.0	95.0	45.0
CCCc1ccc(S(=O)(=O)N2CCC(c3ccc(=O)n(-c4ccccc4)n3)CC2)cc1	-17.7	100.0	101.0	-7.0
O=C1Cc2ccccc2N1c1c(Cl)cccc1Cl	-12.7	103.0	100.0	4.8
C=C(C)c1cccc(C(C)(C)NC(=O)N2CC(C)OC(C)C2)c1 (configuration not stated)	1.5	103.0	109.0	-13.4
O=C(NCCC1CCCCC1)N1CCN(c2ccccc2)CC1	-17.2	103.0	100.0	-3.2
COc1ccc(CN(C)C(=O)CN(C)S(=O)(=O)c2ccc3c(c2)OCCO3)cc1	-15.8	101.0	106.0	-5.3
CCN(CC)C(=O)COc1cc(C)c(Cl)c(C)c1	-27.6	110.0	104.0	.
O=C(OCC(=O)N1CCCC1)c1ccccc1O	.	103.0	108.0	-52.6
CC1CCCCC1NC(=O)c1ccc2c(=O)n(CCCN3CCCC3=O)c(=S)[nH]c2c1 (configuration not stated)	-15.1	104.0	107.0	-4.8
CCCc1nc2sc3c(N4CCCC4)ncnc3c2c2c1CCCC2	-11.6	98.0	102.0	2.2
Cc1ccc(CS(=O)Cc2ccc(C(=O)NCCc3ccccc3)o2)cc1 (configuration not stated)	-10.7	102.0	102.0	13.9
Cc1cc(C)n2c(SCC(=O)N3CCc4ccccc43)nnc2n1	-7.5	95.0	92.0	85.0
CC(C)=NNCOc1ccc(OCc2ccccc2)cc1	7.4	102.0	93.0	1.6
COC(=O)c1ccc2c(c1)nc(C)n2CCO	-26.9	101.0	106.0	4.5
OC1(c2cccc(C(F)(F)F)c2)CCN(c2ccc(-c3ccccc3)nn2)CC1	-0.4	100.0	103.0	-3.9

A section of the results above, as a working copy:
SMILES	MenB inh	Polio RdRp inh	Polio RdRp inh intensity	MbtI inh
COC(=O)c1ccc2c(c1)nc(C)n2CCO	-26.9	101.0	106.0	4.5
OC1(c2cccc(C(F)(F)F)c2)CCN(c2ccc(-c3ccccc3)nn2)CC1	-0.4	100.0	103.0	-3.9

(continued)
SMILES	MenB inh	Polio RdRp inh	Polio RdRp inh intensity	MbtI inh
C=CCn1c(SCC(=O)NC(=O)NC)nnc1-c1ccc(Cl)cc1Cl	-1.1	106.0	103.0	-9.6
O=C(CCC1=NS(=O)(=O)c2cc(Br)cnc2N1)N1CCOCC1	-8.8	100.0	103.0	-8.9
O=C1CC(N2CCC(c3nc4ccccc4[nH]3)CC2)C(=O)N1 (configuration not stated)	-18.5	103.0	104.0	-4.3
N#C/C(=C\c1cnc2ccccc2n1)S(=O)(=O)c1ccccc1	-22.5	91.0	116.0	3.0
CC(C)(C)NC(=O)C1CC(=O)N(c2ccccc2)C1 (configuration not stated)	-15.6	103.0	103.0	-0.5
CC12CCC(=O)N1C(C(=O)N1CCN(c3ccccc3)CC1)CS2 (configuration not stated)	3.2	101.0	96.0	11.5
COc1cc(C(=O)O)ccc1OCc1c(C)noc1C	3.0	100.0	107.0	-7.0
O=S(=O)(c1ccc(N2CCCCC2)cc1)C(F)(F)F	-32.8	102.0	97.0	0.2
CCOC(=O)c1c(O)c2c([nH]c1=O)CCCC2	-19.8	105.0	110.0	.
NNC(=O)CC1=Nn2c(nnc2-c2cccs2)SC1	-12.5	108.0	113.0	2.8
COc1ccc(Nc2c3c(nc4ccc(NC(=O)c5ccc(Br)o5)cc24)CCCC3)cc1OC	-28.7	98.0	99.0	9.4
c1ccc(-c2nnc(SCCN3CCOCC3)o2)cc1	26.2*	100.0	101.0	-3.7
CSc1ncc(C(=O)Nc2cccnc2)c(C(F)(F)F)n1	4.4	99.0	109.0	4.0
Cc1ccccc1NC(=O)C1CCCCC1	-30.7	102.0	102.0	-17.8
CCN1C(=O)c2ccccc2S(=O)(=O)c2ccc(C(=O)NCC3CCCO3)cc21 (configuration not stated)	-17.0	100.0	101.0	6.8
Cc1cc(C)cc(N(CC(=O)N=Nc2c(O)[nH]c3ccccc23)S(C)(=O)=O)c1	-6.4	100.0	102.0	-5.3
CC1C(=O)CC(c2ccccc2)OC1c1ccccc1 (configuration not stated)	-38.1	101.0	103.0	-19.6
COc1ccc(-c2nnc(SCc3nc4ccccc4c(=O)n3CC#N)o2)cc1	-9.4	139.0	173.0	-10.1
Fc1ccc(Nc2ncnc3c2oc2ccccc23)cc1	-26.2	105.0	106.0	-14.9
CCn1c(=N)c(C(N)=O)cc2c(=O)n3ccccc3nc21	-61.2	104.0	104.0	86.0

Random excerpt: 2 entries already listed
SMILES	MenB inh	Polio RdRp inh	Polio RdRp inh intensity	MbtI inh
Cc1c(C)c(/C=N/O)c(C)c(C)c1/C=N/O	8.9	101.0	92.0	.
Fc1ccc(Nc2ncnc3c2oc2ccccc23)cc1	-26.2	105.0	106.0	-14.9

The results go on.
SMILES	MenB inh	Polio RdRp inh	Polio RdRp inh intensity	MbtI inh
O=C(CCC1CCCC1)NCc1nc(-c2ccccc2)no1	-21.5	104.0	103.0	-1.4
Cc1ccc(-c2nc(C=Nc3ccc4c(c3)OCCO4)c(O)o2)cc1	-97.5	96.0	111.0	-17.0
CC1CCCC(C)N1Cc1cn2ccccc2n1 (configuration not stated)	.	99.0	100.0	172.1
CCCN(CCC)C(=O)c1cn(C)c2ccc(S(=O)(=O)N(CC)CC)cc2c1=O	-10.8	102.0	105.0	-0.8
COc1cccc(NC(=O)/C=C/c2ccco2)c1	10.8	98.0	104.0	25.7
C=CCn1c(=O)c(C(=O)NCC2CCCN2CC)c(O)c2cc(OC)c(OC)cc21 (configuration not stated)	-21.7	102.0	100.0	88.5
CSc1nc(N/C=C(\C#N)C(=O)c2cccs2)n2nc(C)cc2n1	-45.8	117.0	119.0	4.2
Cc1cc(C(=O)CSc2nnc(CCC(N)=O)n2CC(C)C)c(C)n1-c1ccc(C(C)C)cc1	-34.6	104.0	103.0	4.3
N#Cc1c(-c2ccccc2)no[n+]1[O-]	11.3	93.0*	90.0*	0.5
C=CCNc1nnc(SCC(=O)NC2CCS(=O)(=O)C2)s1 (configuration not stated)	4.7	100.0	98.0	-1.2
CN1C(N)=NC(=O)/C1=C/c1cc(Br)c(O)c(Br)c1	-46.7	105.0	104.0	14.9
COc1ccc2c(C=NC(C)(C)C)c(O)n(Cc3ccccc3)c(=O)c2c1	.	104.0	97.0	-5.2
CCOc1cccc2cc(C(=O)Nc3nccs3)c(=Nc3ccc(C)c(C)c3)oc12	5.6	102.0	104.0	8.6
O=C(COc1ccccc1)NCC1CCCO1 (configuration not stated)	26.7	103.0	103.0	-0.3
Nc1nc(SCC(=O)Nc2ccccc2)ncc1S(=O)(=O)c1ccccc1	-21.8	104.0	99.0	-12.8
CN(C)S(=O)(=O)c1ccc(C(=O)NC(=O)CSc2nnc(C3CC3)n2-c2ccccc2)cc1	-15.2	104.0	105.0	-13.2
CC(C)C(=O)Oc1cc(OC(=O)C(C)C)c2ccccc2c1	0.9	101.0	96.0	4.0
COC(=O)c1sc2ncn(-n3cccc3)c(=O)c2c1C	-7.6	108.0	119.0	-1.4
O=C(COc1ccccc1Cl)N1CCc2ccccc2C1	-5.5	107.0	112.0	.
OCC1CCCCN1C(=S)NCCc1ccccc1 (configuration not stated)	-4.9	107.0	112.0	.
CN(C)C1(CNC(=S)NC2CCCCC2)CCCCC1	-25.9	99.0	94.0	-5.3
CCOc1ccc(CCNC(=O)Cn2sc3nc(C)cc(C)c3c2=O)cc1	-16.2	104.0	107.0	99.6
Cc1ccc(C2C(N)C(=O)N2c2ccc(C)cc2)cc1 (configuration not stated)	-1.8	104.0	102.0	-5.3
O=C(Nc1nnc(-c2ccccc2)o1)Nc1ccccc1Cl	9.5	101.0	102.0	-11.8
O=C(OCc1ccccc1)c1ccncc1	.	103.0	104.0	-5.2
CCn1cc(C(=O)NCc2ccccc2Cl)c(=O)c2cc(S(=O)(=O)N(C)C)ccc21	-12.1	102.0	109.0	-1.2
CNC(=O)NC(=O)CSc1nc2sc3c(c2c(=O)n1C)CCCC3	-10.5	96.0	102.0	6.4
Cn1c(Cc2ccccc2)nnc1SCC#N	-0.6	103.0	105.0	-6.1
CCN(CC)C(=O)N1CCc2cc(OC)c(OC)cc2C1c1cc2cc(C)ccc2n(C(=O)N(CC)CC)c1=O (configuration not stated)	4.7	100.0	102.0	-1.0
CC(Sc1nc(N)cc(=O)[nH]1)c1nc2ccccc2c(=O)[nH]1 (configuration not stated)	13.9	104.0	101.0	4.1
O=C(CSCc1cnn(-c2ccccc2)c1-n1cccc1)NCCc1ccccc1	-0.4	99.0	103.0	-6.1
CC1(C)C2CC=C(CN3CCC(O)CC3)C1C2 (configuration not stated)	-20.9	101.0	103.0	-4.8

Filtered by structure: those above with a halogen.
SMILES	MenB inh	Polio RdRp inh	Polio RdRp inh intensity	MbtI inh
CC(C)c1nc(N(C)S(C)(=O)=O)nc(-c2ccc(F)cc2)c1/C=C/[C@@H](O)C[C@@H](O)CC(=O)O	-5.7	100.0	101.0	-10.4
O=C(CSc1nncn1-c1ccccc1)Nc1c(F)c(F)c(F)c(F)c1F	.	102.0	105.0	-12.4
C[C@@]1(C2CCCC2)Cc2cc(OCC(=O)O)c(Cl)c(Cl)c2C1=O	-6.7	98.0&99.0	104.0&103.0	50.1
Cc1cc(CNC(=O)Nc2ccc3c(c2)OCO3)c(C)n1-c1ccc(F)cc1	-39.4	100.0	104.0	-15.3
O=C1Cc2ccccc2N1c1c(Cl)cccc1Cl	-12.7	103.0	100.0	4.8
CCN(CC)C(=O)COc1cc(C)c(Cl)c(C)c1	-27.6	110.0	104.0	.
OC1(c2cccc(C(F)(F)F)c2)CCN(c2ccc(-c3ccccc3)nn2)CC1	-0.4	100.0	103.0	-3.9
C=CCn1c(SCC(=O)NC(=O)NC)nnc1-c1ccc(Cl)cc1Cl	-1.1	106.0	103.0	-9.6
O=C(CCC1=NS(=O)(=O)c2cc(Br)cnc2N1)N1CCOCC1	-8.8	100.0	103.0	-8.9
O=S(=O)(c1ccc(N2CCCCC2)cc1)C(F)(F)F	-32.8	102.0	97.0	0.2
COc1ccc(Nc2c3c(nc4ccc(NC(=O)c5ccc(Br)o5)cc24)CCCC3)cc1OC	-28.7	98.0	99.0	9.4
CSc1ncc(C(=O)Nc2cccnc2)c(C(F)(F)F)n1	4.4	99.0	109.0	4.0
Fc1ccc(Nc2ncnc3c2oc2ccccc23)cc1	-26.2	105.0	106.0	-14.9
CN1C(N)=NC(=O)/C1=C/c1cc(Br)c(O)c(Br)c1	-46.7	105.0	104.0	14.9
O=C(COc1ccccc1Cl)N1CCc2ccccc2C1	-5.5	107.0	112.0	.
O=C(Nc1nnc(-c2ccccc2)o1)Nc1ccccc1Cl	9.5	101.0	102.0	-11.8
CCn1cc(C(=O)NCc2ccccc2Cl)c(=O)c2cc(S(=O)(=O)N(C)C)ccc21	-12.1	102.0	109.0	-1.2

Source: PubChem BioAssay (ICCB-Longwood Screening Facility, Harvard Medical School)
